High-throughput results from PubChem BioAssay.
RanGTP-Imp inh = inhibitors of RanGTP-importin-beta interaction, primary screen, biochemical, FRET, CFP-Ran, YFP-importin-beta, homogeneous | Ran GTPase (GTP-bound) - importin-beta complex | cell-free CFP-Ran/YFP-importin-beta FRET ratio | inhibition, % (test concentration not listed) | 300,000 compounds, 1.1% hits | AID 2216, 2009;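 active = most replicates above 15%; inconclusive = exactly half above 15%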;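 note: 0% = DMSO wells and 100% = Ran loaded with GDP instead of GTP; wells of about 40 µL received 100 nL stock; the first replicate is given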
T cruzi inh = inhibitors of intracellular T. cruzi growth, primary screen, luminescence, NIH3T3 host cells; AID 1885, 2009; inhibition, % (concentration not given with the values); 300,000 compounds, 1.4% hits; T. cruzi beta-gal in NIH3T3, 90 h;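 active = mean inhibition across valid replicates above about 55%, limit read from the data; inconclusive = mean below that limit but half or more replicates reach it; inactive = mean below it, under half of replicates reach it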;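 note: signal also drops with host cell toxicity which is not excluded here; 0% = plate median of DMSO wells and 100% = zero luminescence signal; higher percent means less beta-gal luminescence so fewer parasites; stock transfer was 50 nL into about 50 µL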
Calb FLC = C. albicans growth inhibition with fluconazole, primary screen, CaCi-2 strain, Alamar Blue fluorescence | C. albicans CaCi-2 (fluconazole-resistant clinical isolate) + fluconazole, 48 h | growth inhibition, % (concentration not given with the values) | 300,000 compounds, 0.57% hits | AID 1979, 2009;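 active = most replicates above 75%; inconclusive = exactly half above 75%; inactive = most below 75%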;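 note: all wells also contain fluconazole at 8 µg/ml as a sub-toxic cotreatment; 0% = median of DMSO wells and 100% = median of geldanamycin control wells; wells of about 8 µL received 7.5 nL stock; the first replicate is given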
Vif TR-FRET = inhibitors of Vif binding to APOBEC3G peptide, primary screen, biochemical, TR-FRET, GST-Vif 1-94, biotin-A3G peptide, dose response retest (AID 1117319) | TR-FRET GST-Vif / biotin-A3G peptide binding; higher % means a stronger effect; test concentration not given here; strong numbers were not always called active | inhibition, %; hits with a dose series show IC50 in µM | 260,000 compounds, 0.57% hits;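 active = above the screen mean plus three standard deviations and confirmed in dose response; inconclusive = results disagree or hit not tested in dose response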;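 note: Vif residues 1-94 fused to GST binding biotinylated APOBEC3G peptide 110-148; 0% = full assay without inhibitor and 100% = GST in place of GST-Vif; retest series ran down from 100 µM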
A1 inh = caspase 3/7 activation in MEF A1-2A-BIM cells, primary screen, A1 inhibitor project, cell-based, luminescence, HTS. Caspase-Glo 3/7 luminescence, 3 h; percent of clofoctol response, vehicle zero. caspase activation, % (test concentration not listed). 330,000 compounds, 0.066% hits. AID 2462, 2010;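 active = over half of replicate activation scores above 10%, or exactly half above 10 with the replicate mean above 10; inconclusive = replicate mean below 10 yet half the replicates above 10; inactive = over half of replicates below 10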;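 note: wells of about 30 µL received 50 nL stock; many hits fall short of the cut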
Ecoli rRNA inh = reduced GFP signal of wild-type E. coli, primary screen, bacterial rRNA inhibitor project, GFP/RFP fluorescence, OD600, single point; E. coli WT GFP vs humanized-ribosome RFP mutants, 24 h; active compounds read low; DMSO median 0, no signal -100; GFP signal change (wild-type ribosome), % (concentration not given with the values); 350,000 compounds, 1.6% hits;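 active = significant combined selectivity score with lowered wild-type GFP, culture density cut under 30%, mutant RFP and density less affected; inactive = any of these conditions unmet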; note: one replicate is shown; some compounds called inactive have numbers as strong as hits
MLL AF4-AF9 inh = inhibitors of AF4 peptide binding to AF9, primary screen, biochemical, AlphaScreen, biotin-AF4 peptide, FLAG-AF9, single point | inhibition, % at 10 µM | Protein AF-9 (Homo sapiens), P42568 | 350,000 compounds, 0.47% hits;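 active = every replicate reaching a set inhibition limit, whatever the replicate mean, cut at about 25% in these data; inconclusive = mean inhibition reaches that limit but some replicates miss it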;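 note: 0% = plate neutral control median and 100% = total signal loss; the record names both 10 and 1 µM as test concentration; the first replicate is given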
Target sequence (P42568 whole entry, looked up): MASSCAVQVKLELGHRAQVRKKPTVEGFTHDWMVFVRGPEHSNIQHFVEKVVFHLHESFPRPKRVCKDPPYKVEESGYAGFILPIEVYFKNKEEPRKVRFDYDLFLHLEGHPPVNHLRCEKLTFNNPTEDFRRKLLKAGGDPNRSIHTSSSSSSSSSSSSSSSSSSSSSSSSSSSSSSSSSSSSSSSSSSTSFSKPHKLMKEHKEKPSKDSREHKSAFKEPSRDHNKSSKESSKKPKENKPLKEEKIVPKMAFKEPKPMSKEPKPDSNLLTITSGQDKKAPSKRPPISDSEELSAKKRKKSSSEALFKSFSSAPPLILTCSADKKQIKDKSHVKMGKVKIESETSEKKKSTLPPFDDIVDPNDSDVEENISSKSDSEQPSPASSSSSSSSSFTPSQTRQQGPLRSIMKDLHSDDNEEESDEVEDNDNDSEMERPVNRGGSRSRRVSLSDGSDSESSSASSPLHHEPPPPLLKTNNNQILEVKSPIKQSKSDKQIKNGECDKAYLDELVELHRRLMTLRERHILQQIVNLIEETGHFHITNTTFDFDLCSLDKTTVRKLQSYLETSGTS
Beta cell apopt = inhibitors of cytokine-induced beta cell apoptosis, primary screen, luminescence. INS-1E cytokine-induced death, ATP luminescence, 48 h; percent of positive-control rescue, neutral wells zero. protection from apoptosis, % (no concentration beside the values). 300,000 compounds, 0.8% hits;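 active = all replicates at 75% or more, or half of them and the mean; inconclusive = half reach 75% but not the mean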;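 note: 0% = cytokine-treated negative control wells and 100% = positive control rescue; higher means more ATP so stronger rescue from cytokine killing; wells of about 40 µL received 100 nL stock; the first replicate is given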
Ecoli rRNA inh OD600 = also measured in Ecoli rRNA inh; calls as there; OD600 change, %; measured here: OD600 growth;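 optical density of the mix in the first replicate; 0 = DMSO median and -100 = no signal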
Ecoli rRNA inh RFP = also measured in Ecoli rRNA inh; calls as there; RFP signal change, %; measured here: RFP humanized mutant strains;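 first replicate; 0 = DMSO median and -100 = no signal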
The depositor's hits bear a star; ? = inconclusive; / = not tested or not shown; & = joins results of further samples. These rows are one share of the data. The share of hits here may be higher or lower than overall.

SMILES | RanGTP-Imp inh | T cruzi inh | Calb FLC | Vif TR-FRET | A1 inh | Ecoli rRNA inh | Ecoli rRNA inh OD600 | Ecoli rRNA inh RFP | MLL AF4-AF9 inh | Beta cell apopt
COc1cccc(NC(=S)N2CCc3cc(OC)c(OC)cc3C2COc2ccc3c(C)cc(=O)oc3c2)c1 (stereo unspecified) | 0.1 | 34.5 | 9.8 | / | -0.1 | / | / | / | / | 5.4
CCOC(=O)c1ccc(NC(=O)Nc2ccc(S(N)(=O)=O)cc2)cc1 | 0.8 | -10.9 | -3.5 | 1.8% | 0.7 | / | / | / | / | 6.3
CC(=O)N1CCN(C(=O)c2cc(S(=O)(=O)Nc3ccc(S(C)(=O)=O)cc3)ccc2Cl)CC1 | 0.6 | 2.1 | -12.3 | 0.6% | 0.1 | 16.7 | 3.6 | 2.9 | -10.1 | -0.2
C=CCOC(=O)C1=C(C)NC(SCC(N)=O)=C(C#N)C1c1ccc(C)cc1 (stereo unspecified) | -1.6 | 25.0 | -18.2 | / | -0.4 | -32.4 | -62.5 | -4.1 | 2.9 | 2.4
CCSc1nc(C)c(C(C)=O)cc1C#N | 3.2 | -17.1 | -1.3 | -5.5% | 0.9 | / | / | / | / | -3.3
Cc1ccc(-c2csc(C3C(N)=NC(S)=C(C#N)C34CCCCC4)n2)cc1 (stereo unspecified) | -1.1 | 5.6 | 9.9 | 2.6% | -0.6 | / | / | / | / | -13.1
O=C(Oc1cccc(NC(=O)c2ccco2)c1)c1ccc(Br)c(S(=O)(=O)N2CCCCC2)c1 | 5.3 | -1.3 | 5.4 | -2.9% | -0.7 | / | / | / | / | -0.3
Cc1onc(-c2ccccc2Cl)c1C(=O)N1CCN(c2ncccn2)CC1 | -2.6 | -2.9 | 15.9 | 1.5% | 0.7 | -0.6 | -8.5 | -2.2 | -1.4 | -0.4
COc1ccc(/C(N)=N/OC(=O)c2ccc(C)c([N+](=O)[O-])c2)cc1OC | 2.6 | -0.1 | 10.2 | 2.2% | -0.5 | / | / | / | / | 0.6
O=[N+]([O-])c1cccc(-c2ccc(SCc3cccnc3)nn2)c1 | 11.7 | 6.4 | 41.8 | / | 0.8 | 3.9 | -3.8 | -0.8 | 2.7 | 25.1
COCCNc1nc2ccccc2n2cnnc12 | 2.0 | -11.8 | 1.7 | -6.0% | 0.9 | 6.7 | 7.4 | -1.3 | 0.3 | -23.0
CC1=C(C(N)=O)C(c2cccs2)NC(=O)N1 (stereo unspecified) | ? | -4.6 | -5.4 | -0.7% | 1.6 | 10.4 | 5.8 | 0.5 | ? | -5.4
Cc1nc(-c2ccc(-c3ccon3)s2)no1 | 3.3 | -14.6 | -1.2 | -7.2% | -0.7 | 7.4 | 3.9 | 0.7 | -2.6 | -2.7
O=C(C/C=N\OCc1ccc([N+](=O)[O-])cc1)Nc1ccc(Cl)cc1 | -2.0 | -15.9 | 4.4 | -4.0% | -0.3 | -40.5* | -27.6* | -1.9* | -1.0 | /
Cc1cc(Br)ccc1NC(=O)CNC(=O)c1cnn(C)c1 | / | / | / | -13.6% | -0.3 | 12.0 | 4.5 | 1.4 | -0.9 | -2.3
COc1ccc(-n2nc3c(c2NC(=O)c2c(-c4ccccc4Cl)noc2C)CS(=O)(=O)C3)cc1 | 2.3 | -7.7 | -5.3 | 10.3% | ? | -17.7 | -19.8 | 5.1 | -3.2 | 7.2
O=C(c1cccnc1)N1CCN(Cc2cccc(Br)c2)CC1 | -0.1 | -2.8 | -2.1 | 4.5% | 0.5 | / | / | / | / | -4.1
Cc1ccccc1C(=O)N/N=C/c1ccsc1C | ? | 1.2 | -8.6 | 25.2% | -2.4 | -2.2 | 6.7 | -16.8 | -1.2 | -1.7
CCCCCCCCCc1nc2sc3c(c2c(=O)n1NC(=O)c1ccccc1[N+](=O)[O-])CC(C)(C)OC3 | 0.2 | -1.7 | -22.5 | / | 0.5 | 0.6 | -1.8 | -0.3 | -0.8 | 4.0
Cn1c2ccccc2c2cnn(CC(=O)Nc3ccc(Cl)cc3)c(=O)c21 | ? | -1.6 | 12.4 | -5.1% | -0.4 | 5.0 | 7.2 | -0.5 | -0.7 | -1.5
COc1nn(C(C)C(=O)N2N=C(C(F)F)CC2(O)C(F)F)cc1[N+](=O)[O-] (stereo unspecified) | 11.3 | 3.5 | 5.1 | 2.5% | 0.4 | / | / | / | / | -3.8
CN(C1CCS(=O)(=O)C1)S(=O)(=O)c1cccs1 (stereo unspecified) | -2.1 | -5.7 | -1.4 | / | 0.6 | 12.2 | 10.2 | 0.4 | 0.1 | -4.2
Cc1c(C(=O)O)nnn1-c1nonc1N | 3.9 | -8.9 | 2.3 | 1.9% | 0.1 | 22.4 | 6.3 | 4.8 | 2.7 | -0.1
Cc1cccc(NC(=O)c2nc[nH]c2C(=O)NCCN(CCNC(=O)c2[nH]cnc2C(=O)Nc2cccc(C)c2)CCNC(=O)c2[nH]cnc2C(=O)Nc2cccc(C)c2)c1 | / | / | / | / | -0.6 | 23.1 | 20.5 | 1.1 | 6.0 | -6.2
COc1ccc(NS(=O)(=O)c2ccc(C)c(C(=O)OC(C)C(=O)N3CCOCC3)c2)cc1 (stereo unspecified) | -3.3 | -1.7 | 0.7 | 1.8% | 0.1 | 1.8 | 2.7 | -0.1 | 0.9 | 2.4

(further entries)
SMILES | RanGTP-Imp inh | T cruzi inh | Calb FLC | Vif TR-FRET | A1 inh | Ecoli rRNA inh | Ecoli rRNA inh OD600 | Ecoli rRNA inh RFP | MLL AF4-AF9 inh | Beta cell apopt
COc1ccc(-c2noc(CNC(=O)CCN3C(=O)[C@H]4CC=CC[C@H]4C3=O)n2)cc1 | 3.0 | -6.3 | -26.2 | / | 1.4 | 6.4 | 6.5 | -1.6 | -1.2 | -4.5
CCCCOC(=O)Nc1nnc(CCOCC)s1 | -0.8 | 8.0 | -1.4 | -2.5% | -1.0 | / | / | / | / | -18.9
NS(=O)(=O)c1ccc(CCNC(=O)COC(=O)CN2C(=O)C3CCCCC3C2=O)cc1 (stereo unspecified) | 0.9 | -27.9 | -5.6 | 31.4% | -0.1 | 15.3 | 3.4 | 0.3 | 1.3 | -5.9
CC(=O)c1ccc(OCCCCOc2ccc(C(C)=O)cc2)cc1 | 3.4 | 3.2 | 21.5 | / | 0.1 | 5.2 | 6.2 | 0.7 | 0.2 | -3.0
Cc1ccc(OCC(=O)N/N=C\c2ccc(C)o2)c([N+](=O)[O-])c1 | -2.1 | 0.0 | -8.5 | -6.7% | / | 28.1 | 9.3 | 3.6 | -1.6 | /
O=C(Cn1nc(C(=O)O)c2ccccc2c1=O)NCC1CCCO1 (stereo unspecified) | 5.0 | 1.1 | 2.2 | -1.0% | 0.6 | / | / | / | / | -2.4
Cc1cccc(/C=N/Nc2cc(N3CCOCC3)nc(N3CCOCC3)n2)c1 | ? | 69.1* | -12.4 | / | -0.2 | -16.4 | -13.4 | 17.2 | ? | 8.7
CNC(=S)N(Cc1cccs1)Cc1cc2cc(OC)c(OC)cc2[nH]c1=O | 4.3 | 6.1 | 6.8 | / | 0.5 | -4.6 | -6.0 | 8.5 | 2.4 | ?
CCNC(=S)NNC(=O)c1csc2ccccc12 | 1.6 | -17.3 | -11.0 | 15.4% | -0.6 | / | / | / | / | 6.9
Clc1ccc(/C=N/c2c(-c3ccco3)nc3ccccn23)cc1 | 3.0 | -2.0 | ? | 14.1µM* | -1.7 | / | / | / | / | -0.6
COc1ccc(C2=NS(=O)(=O)N(C)C(C(=O)NC(C)c3ccccc3)=C2)cc1 (stereo unspecified) | 1.9 | 12.9 | 4.7 | / | / | 0.3 | -20.4 | -3.2 | 7.2 | 6.1
COc1ccc(CN2C(=O)CS(=O)CC2=O)cc1OC | 2.9 | -12.1 | -15.9 | 15.5% | -0.8 | / | / | / | / | -1.9
COCCCNC(=S)N1CCCC(c2nc3cc(C)c(C)cc3[nH]2)C1 (stereo unspecified) | 2.9 | -27.9 | -15.1 | / | 1.1 | -10.2 | -5.7 | 0.9 | 1.3 | -10.0
CC(=O)N1CCN(S(=O)(=O)c2cccc(C(=O)OCC(=O)N3CC(=O)Nc4ccccc43)c2)CC1 | 1.4 | -12.5 | -3.8 | 13.3% | 1.1 | 20.8 | 7.7 | 3.7 | -1.4 | -0.1
Cc1ccc2[nH]c(=O)c(CN(CCCN3CCOCC3)Cc3nnnn3C3CCCC3)cc2c1 | 1.1 | -34.1 | 12.7 | ? | 0.0 | 6.8 | 8.5 | 3.6 | 5.6 | -5.2
COc1ccc(CN2CCN(Cc3cccc(OC)c3)C(CCO)C2)cc1 (stereo unspecified) | 2.4 | 20.3 | -16.9 | ? | -0.6 | 0.8 | 1.8 | 2.2 | -1.5 | -1.6
CC(C)c1ccc(CCNC(=O)c2ccc([N+](=O)[O-])cc2)cc1 | 3.6 | 35.0 | ? | 10.1% | 0.3 | 4.1 | 4.7 | -0.1 | 4.2 | 4.8
CCn1c(=O)n(CC)c2cc(NC(=O)CSc3ccc([N+](=O)[O-])cn3)ccc21 | -1.8 | 8.4 | 2.1 | / | -0.1 | 5.4 | 1.6 | -2.5 | -1.6 | 1.1
Cc1cc2c(c(=O)n1CC1CCCO1)C(c1ccc3c(c1)OCO3)C(C#N)=C(N)O2 (stereo unspecified) | -2.5 | -9.7 | -3.7 | -7.2%&8.0% | 0.7 | / | / | / | / | -5.9
Cc1noc(/C=C/c2ccco2)c1S(=O)(=O)N1CCC(C(=O)N(C)Cc2ccccc2)CC1 | 2.0 | 21.8 | 13.4 | 23.6%&8.2% | 0.6 | 11.2 | 0.1 | 2.5 | / | 2.2
CC1CCN(S(=O)(=O)c2ccc(C(=O)NCc3ccc4c(c3)OCO4)cc2)CC1 | -3.0 | 5.3 | -31.2 | 58.8% | 0.8 | 7.8 | 1.6 | -6.1 | 2.6 | -0.4
CN(c1ccccc1C(=O)Nc1ccc(CC#N)cc1)S(=O)(=O)c1ccccc1 | -0.5 | 15.2 | -0.5 | 8.0% | 0.0 | 4.9 | -5.2 | 1.1 | -6.0 | -5.4
Clc1ccc(OCCCn2cncn2)cc1Cl | -2.1 | -11.9 | -2.2 | ? | -0.7 | -10.4 | -20.0 | -6.7 | / | -8.3
